# TRPV1 PAM: potentiators of human vanilloid receptor 1 (TRPV1); 320,000 compounds, 0.02% hits; AID 540277; potentiation, % at 8.33 µM; TRPV1-expressing cells, Fluo-8 calcium influx, capsaicin EC20 potentiation; host cell line not named in the record; control for the full effect not named in the record; Q8NER1; active means potentiation above 80%; inconclusive means 30% to 80%; inactive means below 30%; also: 0% is about no effect
# Target sequence (Q8NER1 whole entry, looked up): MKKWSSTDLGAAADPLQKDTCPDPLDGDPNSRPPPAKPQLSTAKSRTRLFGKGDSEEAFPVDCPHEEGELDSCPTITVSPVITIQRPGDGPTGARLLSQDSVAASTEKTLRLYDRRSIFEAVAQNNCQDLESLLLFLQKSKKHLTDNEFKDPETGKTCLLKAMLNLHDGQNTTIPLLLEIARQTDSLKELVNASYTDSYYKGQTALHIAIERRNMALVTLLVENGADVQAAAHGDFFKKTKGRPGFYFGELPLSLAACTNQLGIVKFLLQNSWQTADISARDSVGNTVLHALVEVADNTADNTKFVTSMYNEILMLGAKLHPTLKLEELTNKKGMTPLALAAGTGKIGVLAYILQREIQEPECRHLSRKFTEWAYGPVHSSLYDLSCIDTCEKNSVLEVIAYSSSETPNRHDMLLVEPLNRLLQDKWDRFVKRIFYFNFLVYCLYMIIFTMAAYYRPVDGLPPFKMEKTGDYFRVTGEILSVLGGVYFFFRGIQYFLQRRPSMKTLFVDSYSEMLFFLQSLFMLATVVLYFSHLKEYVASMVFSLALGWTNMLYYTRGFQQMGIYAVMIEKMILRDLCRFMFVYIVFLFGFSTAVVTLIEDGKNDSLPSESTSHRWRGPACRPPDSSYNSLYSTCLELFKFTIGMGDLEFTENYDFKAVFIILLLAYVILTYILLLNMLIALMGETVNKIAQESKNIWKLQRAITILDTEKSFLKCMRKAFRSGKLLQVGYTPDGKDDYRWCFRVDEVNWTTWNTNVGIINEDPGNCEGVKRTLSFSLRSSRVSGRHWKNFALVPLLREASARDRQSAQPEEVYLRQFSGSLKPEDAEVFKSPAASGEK
#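 TRPV1-expressing cells were cultured overnight at 35.5C and loaded with Fluo-8 calcium dye for 40 to 90 min at room temperature. After a 10 s baseline, compound was added and calcium influx was read kinetically for 3 min (ex 480/em 520 nm).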
# CtBP-E1A blk: inhibitors of CtBP/E1A interaction. AlphaScreen GST-E1A/His-CtBP binding, 1536-well; stronger effect = lower value; control for the full effect not named in the record. activity change, % (no concentration beside the values). 340,000 compounds, 0.49% hits. AID 651724; in the data active means activity change below about -65%; inconclusive means about -30% to -65%; inactive means above about -30%; also: % is scaled to controls: 0 for no effect and ±100 for the full control effect
#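 Protein mix (5X: 125 nM each GST-E1A, His-CtBP) was incubated with pinned compound 2 h at 37 deg C in dark, in 50 mM Tris pH 8.0 buffer with 300 mM NaCl. Glutathione donor and nickel acceptor beads followed; AlphaScreen signal read after 1 h.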
# Six1-Eya2 inh: Six1/Eya2 interaction inhibition | AlphaScreen GST-Six1/His-Eya2 binding, biochemical; stronger effect = lower value; control for the full effect not named in the record | activity change, % (concentration not given with the values) | 360,000 compounds, 0.56% hits; in the data active = activity change below about -65%; inconclusive = about -30% to -65%; inactive = above about -30%; also: % is scaled to controls: 0 for no effect and ±100 for the full control effect
#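 Compounds are tested against tagged Six1 and Eya2 proteins bridged by glutathione donor and nickel acceptor beads; after a one-hour incubation at 37 °C without light, AlphaScreen emission is recorded.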
# TRPML1 agonist: activates the human TRPML1 channel. TRPML1-expressing cells, Ca2+ dye fluorescence, FDSS; host cell line not named in the record; reference of the full effect not given here. activation, % (no concentration beside the values). 410,000 compounds, 0.12% hits; in the data active = activation above about 50%; inconclusive = about 30% to 50%; inactive = below about 30%; also: 0% is about no effect; the text of the record puts the active cut at 80%
#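 Cells: TRPML1-DL, 1X Tet inducer, ~16 h at 37 degrees C/5% CO2. Dye: ABD Ca8 no-wash + quencher, 45-90 min RT. Read: 10 s baseline, compound add, 110 s agonist phase; 54-4 EC80 (4uM final), 110 s antagonist phase.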
# TRPML1 blocker: inhibitors of human TRPML1 channel | Q9GZU1 | TRPML1-inducible cells, Ca2+ dye fluorescence, FDSS; stronger effect = lower value; inhibition of EC80 agonist-evoked calcium signal | activity change, negative = inhibition, % (concentration not given with the values) | 390,000 compounds, 0.02% hits; in the data active means activity change below about -50%; inconclusive means about -30% to -50%; inactive means above about -30%;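 also: stimulus is agonist 54-4 at its EC80 concentration; % is scaled to controls: 0 for no effect and ±100 for the full control effect; the text of the record puts the active cut at -80%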
#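 Tet-induced TRPML1-DL cells loaded with Ca8 no-wash calcium dye were read kinetically on FDSS. Compound addition was followed by EC80 agonist 54-4 (4 uM final); inhibition was read over 110 s.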
# D2 PAM: potentiates the human D2 dopamine receptor allosterically; P14416; DiscoveRx D2 beta-arrestin cells, luminescence, 90 min; 100% = 57 uM dopamine signal; potentiation, % (test concentration not listed); 360,000 compounds, 0.23% hits; AID 624464; active = potentiation of 50% or more; inconclusive = 30% to 50%; inactive = 30% or less;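 also: compound concentration not given in the record; tested on top of an EC20 dose of dopamine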
#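 PathHunter D2 cells, attached overnight at 37 deg C, received compound in DMSO plus dopamine at EC20 (50 nM final) for 90 min at 37 deg C. Beta-arrestin recruitment was read as luminescence after 1 h with detection reagent at ambient temperature.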
# Active calls of the source: *; ? = inconclusive; . = no result given; & = joins results of further samples.
no.	compound	TRPV1 PAM	CtBP-E1A blk	Six1-Eya2 inh	TRPML1 agonist	TRPML1 blocker	D2 PAM
1	COc1ccc(C(=O)N/C(=C/c2cccs2)C(=O)N2CCN(C)CC2)cc1	.	14	-1	-0.4	-9	-35
2	COc1cc(OC)c2c(C)cc(=O)oc2c1C(CCN1CCN(c2ccccc2)CC1)c1ccc2c(c1)OCO2 (stereo not drawn)	12	?	?	0.8	-19	0
3	COc1ccc(C(=O)COC(=O)C2CCC(=O)N2)cc1 (stereo not drawn)	-3	2	-16	0.0	-1	-26
4	Cc1cc2ncn(/N=C/c3cccnc3)c2cc1C	-8	-3	-5	1.1	30	-23
5	O/N=C/c1cccn1-c1ccc(O)cc1	6	-4	-2	-0.7	20	-6
6	CCN(C(=O)COC(=O)c1ccccc1NCc1ccco1)c1c(N)n(Cc2ccccc2)c(=O)[nH]c1=O	.	0	-8	-0.1	-14	-1
7	CCN(CC(=O)Nc1c(F)cccc1F)C(=O)CCCc1c[nH]c2ccccc12	18	-1	0	-0.4	-6	0
8	O=C(c1cc2ccccc2o1)N1CCOCC1	-5	-7	11	-0.4	-21	-16
9	CC(=O)NC(CCS(C)(=O)=O)C(=O)Nc1cc(C)on1 (stereo not drawn)	11	-2	6	-0.3	-3	-5
10	COc1ccc(C(CNC(=O)C(CCSC)NC(=O)c2ccccc2Cl)N2CCCCC2)cc1 (stereo not drawn)	-18	20	-1	0.2	8	-17
11	COc1ccc(CNC(=O)C(C)OC(=O)CCN2C(=O)C3CC=CCC3C2=O)cc1 (stereo not drawn)	-10	5	0	-0.4	4	0
12	Cc1nnc2sc(-c3ccc(NC(=O)CSc4ccc(Cl)cc4)cc3)nn12	-3	3	-1	0.2	3	14

# Next part, starting with the last 4 of the part before.
no.	compound	TRPV1 PAM	CtBP-E1A blk	Six1-Eya2 inh	TRPML1 agonist	TRPML1 blocker	D2 PAM
9	CC(=O)NC(CCS(C)(=O)=O)C(=O)Nc1cc(C)on1 (stereo not drawn)	11	-2	6	-0.3	-3	-5
10	COc1ccc(C(CNC(=O)C(CCSC)NC(=O)c2ccccc2Cl)N2CCCCC2)cc1 (stereo not drawn)	-18	20	-1	0.2	8	-17
11	COc1ccc(CNC(=O)C(C)OC(=O)CCN2C(=O)C3CC=CCC3C2=O)cc1 (stereo not drawn)	-10	5	0	-0.4	4	0
12	Cc1nnc2sc(-c3ccc(NC(=O)CSc4ccc(Cl)cc4)cc3)nn12	-3	3	-1	0.2	3	14
13	C[C@@H]1CC[C@@]2(O[C@@H](CCO)C[C@H](O)[C@H]2O)O1	.	4	-8	0.1	?	-9
14	COc1ccc(Oc2nc(C)cc(C)c2S(=O)(=O)c2ccc(C)cc2)cc1	-2	4	-8	2.5	32	-1
15	CCCCCCCCN1C(=O)[C@H](CC(=O)NCCCCc2ccccc2)C[C@@]2(C(=O)OCC)CCCC=C12	.	-7	4	1.5	.	.
16	COCCCNc1ccnc2c(Cl)cccc12	-1	0	-2	-0.6	-9	12
17	C=CCC1c2cccc(C(=O)O)c2C(=O)N1c1ccc(F)cc1 (stereo not drawn)	-15	10	8	1.2	37	10
18	Brc1ccc2nc(C3CCCCC3)c(Cc3ccccc3)n2c1	.	4	-3	0.0	-4	-5
19	O=C(Nc1ccc(O)c2c(=O)cc(-c3cccc(Cl)c3)oc12)c1cccc(Cl)c1	-6	-1	9	0.1	38	-6
20	CC(C)Cn1c(N)c(C(=O)COC(=O)c2ccccc2C(=O)c2ccccc2)c(=O)n(C)c1=O	.	-7	-6	0.7	57	-3
21	CN(C)S(=O)(=O)c1ccc(Cl)c(C(=O)Nc2ccc(S(=O)(=O)N3CCOCC3)cc2)c1	-3	-2	12	0.5	-7	1
22	CCOC(=O)C(CC)c1cc2n(c(=O)c1C#N)CCC21OCCO1 (stereo not drawn)	.	2	2	-0.8	.	1
23	Cc1ccc(C)c(S(=O)(=O)NCCOC(=O)Nc2sc(=S)n(C)c2C)c1	-7	9	-3	0.9	2	-21
24	CN(C)CCC(=O)c1ccc2c(c1)OCO2	-22	3	2	2.9	0	-26
25	CCCC(=O)Nc1ccc2nc(SCC(=O)N3CCCC3)sc2c1	3	1	-3	0.9	-13	12
26	COc1ccc(S(=O)(=O)N2CCc3ccccc32)cc1C(=O)NCC(c1ccco1)N1CCCC1 (stereo not drawn)	.	.	-1	1.2	-10	-12
27	O=C(COC(=O)c1ncc(Cl)c(Cl)c1Cl)NNC(=O)c1ccccc1	5	13	-2	-0.3	20	-23
28	CCc1nnc(NC(=O)Nc2ccc(Cl)cc2)s1	2	.	4	1.2	1	-5
29	Cc1ccccc1CC1SC(N=C(N)N)=NC1=O (stereo not drawn)	1	-1	2	-0.4	-7	0
30	COc1ccc(CC(=O)NCC(=O)N/N=C/c2c[nH]c3ccccc23)cc1	1	-8	-5	0.6	3	-1
31	O=C(Nc1ccc(S(=O)(=O)N2CCOCC2)cc1)c1ccc(Br)o1	5	-3	-2	1.1	-3	1
32	CN(C)CC(CCC(CN(C)C)C(=O)c1ccccc1)C(=O)c1ccccc1 (stereo not drawn)	2	8	-15	0.5	11	-18
33	Cc1ccc(C2=NN(S(=O)(=O)c3ccccc3)C(c3ccco3)C2)cc1 (stereo not drawn)	11	-8	-10	1.8	3	-4
34	COc1ccc(S(=O)(=O)N2CCOCC2)cc1C(=O)Nc1ccon1	?	?	?	0.2	-22	-5
35	Cc1cccc(N(CC(=O)NC2CCCC2)C(=O)CS(=O)CC(=O)Nc2ccc3c(c2)OCO3)c1 (stereo not drawn)	-24	7	7	0.4	-16	-8
36	NCCCn1c(C(=O)c2cc(Cl)c(N)c(Cl)c2)c2ccc(C(F)(F)F)cc2[n+]1[O-]	-55	-18	-15	0.3	3	-12
37	Cc1ccccc1CN1C[C@@H]2C[C@@H](c3cn[nH]c3-c3ccc(F)cc3)N3CCC[C@@]23C1=O	18	6	-9	6.6	-1	-4
38	Cc1cc(C)c(C#N)c(Nc2cccc(C)c2C)n1	9	16	3	1.4	14	2
39	O=C1OCC/C1=C\NCCCCCCCCN/C=C1\CCOC1=O	.	0	14	-1.0	-2	-14
40	Cc1cccc(CC(=O)NCC2CCCCC2)c1	-25	.	8	.	.	-13
41	Cc1cc(C)c2nc(SCC(=O)NCCN3C(=O)CSC3=O)cc(C)c2c1	9	3	8	0.4	-8	-13
42	C/C(=N\NC(=O)c1ccccc1)c1ccc(N2CCOCC2)cc1	-6	0	5	-0.4	22	-11
43	CCCCCCP(=O)(O)c1ccccc1	3	4	4	-0.3	-5	-5
44	O=S(=O)(c1ccc(-c2cnc(C3CC3)o2)cc1)N1CCN(c2ccccc2)CC1	0	.	-7	1.3&-1.0	15&17	-9
45	CCCCn1c(SCC(=O)NCc2ccco2)nnc1-c1ccoc1C	-3	-1	-11	-0.2	5	1
46	CC1CCCCN1C(=O)CCS(=O)(=O)c1cc2c(cc1Cl)NC(=O)CO2 (stereo not drawn)	-24	2	6	0.0&1.1	-5&11	-2
47	CC(=O)Nc1ccc(S(=O)(=O)N2CCN(c3cc(C)ccc3C)CC2)cc1	-12	-1	-10	0.8	8	-5
48	CN(C)CCN1C(=O)C2C3C=CC(C3)C2C1=O (stereo not drawn)	3	.	3	-0.2	8	1
49	Nc1ncc(Br)cc1S(=O)(=O)NCCC(=O)N1CCN(c2ccccn2)CC1	2	-5	7	-0.8	3	-7
50	CCOc1ccc(CCN2C(=O)C(=O)N([C@@H](CC(C)C)CN3CCC[C@H]3CN3C(=O)C(=O)NC[C@@H]3CC(C)C)C[C@@H]2Cc2ccc(O)cc2)cc1	.	-24	-2	0.3	.	.
51	Cc1nn2c(-c3ccccc3)ccnc2c1Br	1	.	25	0.4	-4	-4
52	COc1ccccc1-c1cn[nH]c1-c1ccc(OCc2ccc([N+](=O)[O-])cc2)cc1O	-3	3	-14	1.0	0	-1
53	CCOC(=O)C1CCN(S(=O)(=O)CCNC(=O)c2ccc3c(c2)OCO3)CC1	9	6	7	0.5	12	-2
54	CCOC(=O)/C=c1\s/c(=C\c2ccc3cc(OC)ccc3c2)c(=O)n1CC(=O)NCC1CCCO1 (stereo not drawn)	5	6	1	0.2	-14	-18
55	Cn1c2ccccc2c2c(C(=O)N3CCN(c4ccccc4)CC3)cn(C3CCCC3)c(=O)c21	-1	?	?	0.9	33	-12
56	CCCc1nc(C)cc(N2CCN(c3ccccc3)CC2)n1	12	3	13	1.4	24	-9
57	CCOc1ccccc1NC(=O)C1CCCN(S(=O)(=O)c2ccc3c(c2)CCCN3C(C)=O)C1 (stereo not drawn)	.	2	-8	-1.0&0.6	-5&7	0
58	CC1C/C(=C\c2ccccc2[N+](=O)[O-])c2nc3ccccc3c(C(=O)O)c2C1 (stereo not drawn)	12	-5	-7	-1.1	3	-4
59	Cc1ccc(NS(=O)(=O)c2ccc(C(=O)NCc3ccccn3)cc2)cc1	6	-4	1	9.0	12	0
60	CCOC(=O)C1CCN(C(=O)c2sccc2Cl)CC1	-5	10	4	-0.4	1	-7
61	COc1ccc(C(CNC(=O)Cc2ccc3ccccc3c2)N(C)C)cc1 (stereo not drawn)	11	-3	5	1.2	5	-13
62	CCCN(CCC)CCCNC(=O)c1nn(-c2cccc(OC)c2)c(=O)c2ccccc12	3	.	4	0.7	0	-10
63	CCCCC(=O)OCc1nc2ccccc2s1	3	-1	24	-1.5	-2	-23
64	CCOc1ccc2[nH]c(=O)c(CN(CCCO)C(C)=O)cc2c1	2	2	11	-1.0	-12	-15
65	Cc1cc(C(=O)NNC(=O)c2c(-c3c(Cl)cccc3Cl)noc2C)no1	-2	-1	0	-0.2	14	-4
66	COc1ccc(NC(=O)c2ccccc2S(=O)c2ccccc2C#N)cc1 (stereo not drawn)	0	-13	9	0.0	-3	2
67	O=C(Nc1ccccc1C(=O)N/N=C/c1ccco1)c1ccc(F)cc1	2	-9	-1	-0.5	-10	0
68	CCCCN(C)C(=O)c1nc2ccccn2c1CN1CCN(c2ccccn2)CC1	4	5	3	-0.6	-17	-11
69	O=C(O)c1cc(N/N=C/c2ccc3c(c2)OCCO3)ccc1Cl	27	4	-16	-0.4	-18	18
70	CCNC(=O)CSc1nnc(CN2CCCCCC2=O)n1-c1ccccn1	-3	4	-2	0.9	-1	4
71	COc1cccc(-c2nc(CS(=O)(=O)CC(=O)N3CCN(c4ccccn4)CC3)c(C)o2)c1	-5	-26	-12	1.1	4	-3
72	CN(CCOc1ccccc1)C(=O)C1CCC(=O)N(CCCN2CCOCC2)C1 (stereo not drawn)	3	5	5	-0.1	7	-9

# (further entries)
no.	compound	TRPV1 PAM	CtBP-E1A blk	Six1-Eya2 inh	TRPML1 agonist	TRPML1 blocker	D2 PAM
73	COCCN(C(=O)COC(=O)CSc1ccc(Cl)cc1)c1c(N)n(CC(C)C)c(=O)[nH]c1=O	22	5	7	-0.1	-16	6
74	Cc1cccc(NC(=O)Nc2c(C)[nH]c(=O)[nH]c2=O)c1C	-8	1	2	0.3	3	-5
75	Cc1c(CN(C)CCc2ccccc2)c(=O)n(-c2ccccc2)n1C	-2	0	9	0.1	-11	-15
76	Cn1nc(C(=O)Nc2ccccc2Cl)cc1C(=O)Nc1ccccc1Cl	.	.	8	0.6	-16	2
77	Cc1ccc(CNC(=O)c2nnc(CS(=O)(=O)c3ccccc3)o2)cc1	-17	6	7	1.5	-1	-4
